From PubChem
HIV Env fusion – blocks HIV Env-driven cell-cell fusion. HeLa-JRFL Env/CEM21 cell fusion, luciferase. inhibition, % at 12.3 µM. 360,000 tested, 1.1% active. AID 651610;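 active = mean replicate inhibition score of at least 50 and every replicate individually at or above 50; inconclusive = only one of the two criteria met; inactive = mean below 50 and not all replicates reaching 50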;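 also: 0% = plate neutral controls and 100% = maraviroc near 300 nM; one replicate is shown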
* = called active by the depositor; u = inconclusive; [ ] = remark or other dose. Not all compounds are listed; rates above refer to the full screens.

Start of the listing, in advance, 2 compounds:
SMILES	HIV Env fusion
CCCNC(=O)Nc1ccc2c(c1)OC[C@H](C)N(C(=O)C1CCOCC1)C[C@H](C)[C@@H](OC)CN(C)C2=O	-21[16.7 µM]
Cc1onc(-c2c(F)cccc2Cl)c1C(=O)Nc1cccc(S(=O)(=O)N2CCCCC2)c1	9

The listing, from the first entry:
SMILES	HIV Env fusion
CCCNC(=O)Nc1ccc2c(c1)OC[C@H](C)N(C(=O)C1CCOCC1)C[C@H](C)[C@@H](OC)CN(C)C2=O	-21[16.7 µM]
Cc1onc(-c2c(F)cccc2Cl)c1C(=O)Nc1cccc(S(=O)(=O)N2CCCCC2)c1	9
CO[C@H]1CN(C)C(=O)c2cc(NS(=O)(=O)CC(F)(F)F)ccc2OC[C@H](C)N(Cc2nccs2)C[C@@H]1C	7[16.7 µM]
CCC(=O)N1[C@@H]2c3ccc(-c4ccncc4)c(=O)n3C[C@H]1[C@H](CO)[C@H]2C(=O)NC1Cc2ccccc2C1	-11[16.7 µM]
COc1ccc2c3c([nH]c2c1)[C@@H](CO)N(C(=O)CN(C)C)CC31CCN(C(=O)c2cccnc2)CC1	0[16.7 µM]
O=C(NCCc1ccncc1)[C@H]1[C@H](CO)[C@H]2Cn3c(ccc(-c4ccc(F)cc4)c3=O)[C@@H]1N2	0[16.7 µM]
C[C@H](CO)N1C[C@H](C)[C@@H](CN(C)C(=O)Nc2ccc3c(c2)OCO3)Oc2ccc(NS(=O)(=O)c3ccc(F)cc3)cc2CC1=O	28[16.7 µM]
CCOC1=C2[C@H](c3ccccc3)N(S(=O)(=O)c3ccc(C)cc3)[C@H](C(C)C)[C@H]2C(C#N)(C#N)C(C#N)(C#N)C1	107*
C[C@H](CO)N1C[C@H](C)[C@@H](CN(C)C(=O)NC2CCCCC2)Oc2ccc(NC(=O)CCCN(C)C)cc2C1=O	-12[16.7 µM]
O=C(C[C@@H]1C[C@@H]2c3cc(NC(=O)Cc4ccncc4)ccc3O[C@@H]2[C@H](CO)O1)NCc1ccccn1	9[16.7 µM]
O=C(O)C(c1ccccc1)C1(O)CC2CCC1C2 (stereo not given)	-20
O=C(C[C@@H]1CC[C@@H]2[C@H](COC[C@@H](O)CN2CCC(F)(F)F)O1)NCC1CCCCC1	11[16.7 µM]
CN(C)C(=O)c1cc2c(c(-c3cccc(C4=CCCCC4)c3)n1)[C@@H](CCO)N(S(C)(=O)=O)C2	33[16.7 µM]
CN(C)C(=O)C[C@@H]1CC[C@@H]2[C@@H](COc3ccc(NC(=O)c4ccc(F)cc4)cc3C(=O)N2C)O1	-1[16.7 µM]
CC(C)NC(=O)Nc1ccc2c(c1)CC(=O)N([C@@H](C)CO)C[C@@H](C)[C@H](CN(C)S(=O)(=O)c1ccccc1)O2	1[16.7 µM]
CO[C@H]1CN(C)C(=O)c2ccc(NC(=O)C3CCCC3)cc2OC[C@H](C)N(S(C)(=O)=O)C[C@H]1C	-9[16.7 µM]
C[C@H](CO)N1C[C@H](C)[C@@H](CN(C)C(=O)c2ccncc2)Oc2ncc(C#CC3CC3)cc2C1=O	-9[16.7 µM]
COc1ccc(-c2c(C(=O)c3ccc(Br)cc3)[nH]c(N)c2C(=O)NCCc2c[nH]c3ccccc23)cc1OC	13
COCC(=O)Nc1ccc2c(c1)C(=O)N(C)C[C@@H](OC)[C@H](C)CN(Cc1ccccn1)[C@@H](C)CO2	-12[16.7 µM]
CN1C(=O)c2cc(NC(=O)C3CCCCC3)ccc2OC[C@@H]2O[C@@H](CC(=O)NCc3ccccc3F)CC[C@H]21	0[16.7 µM]

Ordered by length of the SMILES (rising): part of the list above.
SMILES	HIV Env fusion
O=C(O)C(c1ccccc1)C1(O)CC2CCC1C2 (stereo not given)	-20
O=C(C[C@@H]1CC[C@@H]2[C@H](COC[C@@H](O)CN2CCC(F)(F)F)O1)NCC1CCCCC1	11[16.7 µM]
C[C@H](CO)N1C[C@H](C)[C@@H](CN(C)C(=O)c2ccncc2)Oc2ncc(C#CC3CC3)cc2C1=O	-9[16.7 µM]
COc1ccc(-c2c(C(=O)c3ccc(Br)cc3)[nH]c(N)c2C(=O)NCCc2c[nH]c3ccccc23)cc1OC	13
COCC(=O)Nc1ccc2c(c1)C(=O)N(C)C[C@@H](OC)[C@H](C)CN(Cc1ccccn1)[C@@H](C)CO2	-12[16.7 µM]
CN1C(=O)c2cc(NC(=O)C3CCCCC3)ccc2OC[C@@H]2O[C@@H](CC(=O)NCc3ccccc3F)CC[C@H]21	0[16.7 µM]
CC(C)NC(=O)Nc1ccc2c(c1)CC(=O)N([C@@H](C)CO)C[C@@H](C)[C@H](CN(C)S(=O)(=O)c1ccccc1)O2	1[16.7 µM]

Following part:
SMILES	HIV Env fusion
O=C(C[C@@H]1CC[C@H]2[C@@H](COC[C@@H](O)CN2C(=O)Nc2cccc(Cl)c2)O1)N1CCCCC1	9[16.7 µM]
CN1CCCCC(NC(=O)c2ccc3ccccc3c2)C1=O (stereo not given)	-8
Nc1nc2c(ncn2[C@@H]2O[C@H](C(=O)N[C@H](Cc3ccccc3)C(=O)NC3CCCCC3)[C@@H](O)[C@H]2O)c(=O)[nH]1	-1
CO[C@@H]1CN(C)C(=O)c2cc(NC(=O)c3nc4ccccc4s3)ccc2OC[C@@H](C)N(Cc2cncnc2)C[C@H]1C	-19[16.7 µM]
CO[C@@H]1CN(C)C(=O)c2ccc(NC(=O)c3nc4ccccc4s3)cc2OC[C@@H](C)N(Cc2cccnc2)C[C@@H]1C	3[16.7 µM]
CO[C@@H]1CN(C)C(=O)c2cc(NC(=O)NC(C)C)ccc2OC[C@H](C)N(Cc2ccccc2)C[C@H]1C	8[16.7 µM]
C[C@@H]1CN([C@@H](C)CO)C(=O)Cc2cc(NS(=O)(=O)c3cccs3)ccc2O[C@H]1CN(C)S(=O)(=O)c1cccs1	-4[16.7 µM]
CC(C)NC(=O)N(C)C[C@@H]1Oc2ccc(N(C)C)cc2CC(=O)N([C@@H](C)CO)C[C@@H]1C	6[16.7 µM]
CCN(CC)C(=O)c1ncn2c1C(=O)NC[C@@H]2C	117*
CCCc1c(-c2ccc(OC)cc2)ncn1CCc1ccccc1OC	13
CO[C@@H]1CN(C)C(=O)c2ccc(NC(=O)C3CCOCC3)cc2OC[C@@H](C)N(Cc2nccs2)C[C@H]1C	-3[16.7 µM]
COCCNC(=S)N(C)[C@H]1C[C@H]2c3[nH]c4ccccc4c3CCN2C[C@H]1[C@H](C)O	20
COc1ccc(CN(C)C[C@@H]2Oc3c(NS(C)(=O)=O)cccc3C(=O)N([C@H](C)CO)C[C@@H]2C)cc1	-3[16.7 µM]
CCC(=O)N1CC2(C1)CN(C(=O)CC)[C@H](CO)c1[nH]c3cc(OC)ccc3c12	-1[16.7 µM]
CS(=O)(=O)Nc1ccc2c(c1)[C@H]1C[C@@H](CC(=O)NCc3ccc(Cl)cc3)O[C@@H](CO)[C@H]1O2	0[16.7 µM]
CCCNC(=O)N1C[C@H](C)[C@H](OC)CN(C)C(=O)c2cc(NC(=O)CCC)ccc2OC[C@@H]1C	7[16.7 µM]
C[C@H](CO)N1C[C@H](C)[C@@H](CN(C)Cc2ccc(C(=O)O)cc2)Oc2ccc(NC(=O)Cc3ccccc3)cc2C1=O	9[16.7 µM]
C[C@H](CO)N1C[C@H](C)[C@H](CN(C)S(=O)(=O)c2ccccc2)Oc2ccc(NC(=O)Nc3ccc4c(c3)OCO4)cc2CC1=O	75*[16.7 µM]
C[C@H]1CN([C@@H](C)CO)C(=O)Cc2cc(NC(=O)Cn3cnnn3)ccc2O[C@H]1CN(C)C(=O)Nc1ccc(F)cc1	2[16.7 µM]
O=C(C[C@@H]1C[C@@H]2c3cc(NC(=O)C4CCOCC4)ccc3O[C@@H]2[C@@H](CO)O1)NCc1ccc2c(c1)OCO2	-24[16.7 µM]
COC(=O)Cc1nnn2c1[C@H](C)[C@H](c1ccccc1Br)OC[C@@H]2c1ccccc1	-6
CN1CCN(C(=O)C2=C[C@H](c3ccc(Br)cc3)C[C@H](OCc3ccc(CO)cc3)O2)CC1	4[16.7 µM]
C[C@H](CO)N1C[C@H](C)[C@H](CN(C)S(C)(=O)=O)OCCCC[C@H](C)Oc2ccc(NC(=O)C3CCCCC3)cc2C1=O	-15[16.7 µM]
CCCN1C[C@H](C)[C@@H](OC)CN(C)C(=O)c2ccc(NS(=O)(=O)c3cn(C)cn3)cc2OC[C@H]1C	-26[16.7 µM]
O=C(CCc1c[nH]c2ccccc12)Nc1ccc(Nc2cccnc2)cc1	1
CCC(=O)Nc1ccc2c(c1)C(=O)N(C)C[C@H](OC)[C@H](C)CN(CC1CCOCC1)[C@@H](C)CO2	23[16.7 µM]
Cc1cc(C)cc(OCCCN2CCC(C(O)(c3ccccc3)c3ccccc3)CC2)c1	-9
O=C(NC(CC1=CCCCC1)c1ccc2ccccc2c1)C(F)(F)F (stereo not given)	-30
CN(Cc1ccccc1)C(=O)c1cccc(NC(=O)Cc2cccc(NC(=O)C3CCN(C(=O)CCc4ccccc4)CC3)c2)c1	-1
CO[C@H]1CN(C)C(=O)c2ccc(NS(=O)(=O)c3cn(C)cn3)cc2OC[C@H](C)N(Cc2cccc(F)c2)C[C@@H]1C	-3[16.7 µM]
CN(C)C(=O)[C@H]1[C@H](CO)[C@H]2Cn3c(ccc(/C=C/c4ccccc4)c3=O)[C@H]2N1C(=O)c1cccnc1	4[16.7 µM]
CNC[C@H]1OCc2ccccc2-c2ccccc2C(=O)N([C@H](C)CO)C[C@@H]1C	-5[16.7 µM]
Cc1cc(N2CCN(C(=O)OC(C)(C)C)C[C@H]2C)ccc1N1CC[C@@H](O)C1	16
CN(C)C(=O)c1ccc(-c2cccc(-c3nc(C(=O)N(C)C)cc4c3[C@@H](CCO)N([S@](=O)C(C)(C)C)C4)c2)cc1	-17[16.7 µM]
CCCN(C)C[C@H]1OCCCC[C@@H](C)Oc2ccc(NC(=O)NC(C)C)cc2C(=O)N([C@H](C)CO)C[C@@H]1C	-8[16.7 µM]
C[C@H](O)[C@@H]1C(=O)N2CCc3c([nH]c4cccc(-c5ccccc5)c34)[C@@H]2C[C@@H]1N(C)C(=O)Nc1ccccc1	u
C[C@H](CO)N1C[C@H](C)[C@@H](CN(C)C(=O)C2CC2)Oc2cc(C#CC(C)(C)O)ccc2S1(=O)=O	-34[16.7 µM]
CN1[C@@H]2Cn3c(ccc(C4=CCCCC4)c3=O)[C@H]1[C@@H](C(=O)NCc1cc(F)cc(F)c1)[C@@H]2CO	-9[16.7 µM]
C[C@@H]1CCCCO[C@@H](CN(C)Cc2ccc(C(=O)O)cc2)[C@H](C)CN([C@H](C)CO)C(=O)c2cc(N(C)C)ccc2O1	3[16.7 µM]
CC(C)C[C@H]1COc2ccc(Cl)cc2S(=O)(=O)N1C[C@H](NC(=O)OC(C)(C)C)C(C)C	-12
C[C@H](NC(=O)[C@@H]1[C@@H](CO)[C@@H]2Cn3c(cccc3=O)[C@H]1N2CCC(F)(F)F)c1ccccc1	4[16.7 µM]
CC(C)NC(=O)N(C)C[C@H]1OCCCC[C@@H](C)Oc2ccc(NC(=O)Cc3ccccc3)cc2C(=O)N([C@H](C)CO)C[C@@H]1C	7[16.7 µM]
C[C@@H]1CN([C@H](C)CO)C(=O)c2cc(NC(=O)C3CC3)ccc2O[C@@H]1CN(C)Cc1ccc(C(=O)O)cc1	-11[16.7 µM]
COCCNC(=O)C[C@@H]1CC[C@@H]2[C@H](COC[C@H](O)CN2Cc2cccc(-c3ccncc3)c2)O1	27[16.7 µM]
COc1ccccc1Cc1c(-c2cccc(Br)c2)nc2ccc(C)cn12	-7
CCCN1C[C@H](C)[C@@H](OC)CN(C)C(=O)c2ccc(NC(=O)c3ccccc3F)cc2OC[C@H]1C	-8[16.7 µM]
CO[C@H]1CN(C)C(=O)c2cc(NC(=O)Nc3ccccc3)ccc2OC[C@@H](C)N(C(=O)CC2CC2)C[C@@H]1C	3[16.7 µM]
C[C@@H]1CCCCO[C@H](CN(C)Cc2ccc3c(c2)OCO3)[C@@H](C)CN([C@@H](C)CO)C(=O)c2cc(N(C)C)ccc2O1	-4[16.7 µM]
O=C(C[C@@H]1CC[C@@H](NC(=O)CN2CCOCC2)[C@@H](CO)O1)NCc1cccc(F)c1	8[16.7 µM]
COc1ccc(CN(C)C[C@@H]2Oc3ccc(NC(=O)NC4CCCCC4)cc3CC(=O)N([C@H](C)CO)C[C@H]2C)cc1	-7[16.7 µM]

Following part.
SMILES	HIV Env fusion
O=C(Nc1cc(F)ccc1F)N[C@@H]1CC[C@H](CCn2cc(C3CC3)nn2)O[C@@H]1CO	11[16.7 µM]
COc1ccccc1CNC(=O)C[C@@H]1CC[C@H]2[C@@H](COC[C@H](O)CN2Cc2ccc3c(c2)OCO3)O1	5[16.7 µM]
Cc1ccc(S(=O)(=O)Nc2ccc3c(c2)C(=O)N([C@H](C)CO)C[C@@H](C)[C@@H](CN(C)Cc2ccc(Oc4ccccc4)cc2)O3)cc1	12[16.7 µM]
CC(=O)N1C[C@@H](CO)[C@@H]2C[C@H]1c1ccccc1N2C	20
COc1ccc(C2CC(=O)C(c3ccc(Br)cc3)=CN2Cc2ccccc2)cc1 (stereo not given)	-12
COc1cccc(CN2CC3(CN(C(=O)Nc4c(C)noc4C)C3)c3c([nH]c4cc(OC)ccc34)[C@@H]2CO)c1	-8[16.7 µM]
Cc1[nH]c2ccccc2c1CC(=O)Nc1ccc(Nc2cccnc2)c(-c2ccc(-c3ccccc3)cc2F)c1	-19
CCCN1[C@H](C(=O)OC)[C@@H](CO)[C@@H]2Cn3c(ccc(-c4cncnc4)c3=O)[C@@H]21	-15[16.7 µM]
O=C(C[C@H]1CC[C@H]2NC[C@@H](O)COC[C@@H]2O1)NCc1ccc2c(c1)OCO2	-3[16.7 µM]
O=C(O)C[C@H]1C[C@@H]2c3cc(NC(=O)Nc4ccc(C(F)(F)F)cc4)ccc3O[C@@H]2[C@H](CO)O1	3[16.7 µM]
COCc1cc(N2CCN(C(=O)OC(C)(C)C)C[C@@H]2C)ccc1Br	7
COc1ccc(NC(=O)N(C)C[C@@H]2Oc3ccc(NS(=O)(=O)c4ccccc4)cc3CC(=O)N([C@H](C)CO)C[C@H]2C)cc1	-15[16.7 µM]
Cc1noc(C)c1S(=O)(=O)Nc1ccc2c(c1)CC(=O)N([C@@H](C)CO)C[C@H](C)[C@H](CN(C)C(=O)Nc1ccccc1)O2	-5[16.7 µM]
